# Compound activity from PubChem.
# RecA splice inh = inhibitors of M. tuberculosis RecA intein splicing. P9WHJ3. cell-free RecA intein splicing, fluorescence. AID 2221. 290,000 tested, 0.75% active. inhibition, %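 (about 9 µM by stock and volumes)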; in the data active means inhibition above about 30%; inconclusive means no clear call, values can overlap the other calls;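 further: 0% = vehicle wells and 100% = reference inhibitor control wells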
# Target sequence (P9WHJ3 whole entry, looked up, canonical isoform): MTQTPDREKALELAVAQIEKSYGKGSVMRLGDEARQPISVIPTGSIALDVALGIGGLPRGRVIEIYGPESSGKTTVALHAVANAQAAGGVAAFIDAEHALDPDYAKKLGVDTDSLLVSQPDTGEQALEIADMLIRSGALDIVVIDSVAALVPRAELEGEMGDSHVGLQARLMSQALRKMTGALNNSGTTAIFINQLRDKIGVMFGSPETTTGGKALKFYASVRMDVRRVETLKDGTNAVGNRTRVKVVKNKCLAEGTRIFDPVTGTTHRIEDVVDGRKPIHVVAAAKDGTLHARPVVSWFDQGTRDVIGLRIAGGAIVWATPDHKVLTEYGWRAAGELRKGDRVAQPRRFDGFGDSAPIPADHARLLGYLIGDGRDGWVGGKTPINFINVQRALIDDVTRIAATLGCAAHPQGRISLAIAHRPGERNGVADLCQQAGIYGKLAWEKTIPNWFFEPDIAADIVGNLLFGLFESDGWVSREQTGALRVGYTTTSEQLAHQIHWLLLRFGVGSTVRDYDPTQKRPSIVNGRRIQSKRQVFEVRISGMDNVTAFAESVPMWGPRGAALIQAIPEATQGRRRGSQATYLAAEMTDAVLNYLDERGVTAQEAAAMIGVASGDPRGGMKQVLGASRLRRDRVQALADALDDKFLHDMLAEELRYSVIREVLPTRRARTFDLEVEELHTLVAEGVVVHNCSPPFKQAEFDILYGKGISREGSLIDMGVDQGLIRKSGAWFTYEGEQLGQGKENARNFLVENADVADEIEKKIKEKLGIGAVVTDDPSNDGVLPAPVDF
# Mtb betalactam = beta-lactam sensitization of Mtb H37Rv; AID 434955; 330,000 tested, 0.27% active; M. tuberculosis H37Rv growth with meropenem, percent inhibition; hits of this screen are not shown here; inhibition, % at 25 µM;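 active means about 74% or more and at least 40 points above the plate without the antibiotic, then above 30% in a dose series; inconclusive means first-round hits that could not be retested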;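 further: growth measured after seven days incubation then overnight dye step; 0% = bacteria only wells and 100% = bacteria with antibiotic; twin plates without the antibiotic show which effects depend on it; some results filed as inactive read as strong as hits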
# Arbovirus inh = blocks arbovirus infection | arbovirus infection cell-based antiviral screen | inhibition, % at 10 µM | 200,000 tested, 0.37% active;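 active means inhibition from about 30%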;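 further: bluetongue infection of BSR cells; cell survival read as ATP light after 72 h; 0% = infected wells without compound and 100% = uninfected wells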
# YopH PTP inh = blocks Yersinia enterocolitica YopH tyrosine phosphatase; AID 898; inhibition, %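 (about 10 µM by stock and volumes)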; fluorescence Ex485/Em525; 140,000 tested, 0.16% active;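 active means inhibition of 50% or more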;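 further: controls were vehicle for no effect and minimum signal wells for full effect; inactives centre near -20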
# Mtb growth = M. tuberculosis H37Rv growth inhibitors, H37Rv strain (AID 1626); M. tuberculosis H37Rv growth inhibition; higher % means a stronger effect; inhibition, % at 10 µM, or IC50 in µM where a hit was titrated; 220,000 tested, 0.95% active;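 active means confirmed in a dose series; inconclusive means inhibition above 80% but not taken into the dose series; inactive means below 80% or under 30% at every dose of the series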;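 further: bacteria incubated seven days before Alamar blue readout; 0% = bacteria only wells and 100% = bacteria with antibiotic wells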
# Arbovirus inh repeat = further read-out of Arbovirus inh, marked with its call; inhibition, %; measured here: 10K subset replicate screen; many hits read low in the repeat;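 first of two repeat runs on a subset; 0% = infected and 100% = uninfected wells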
# Numbers without * were called inactive; ? = inconclusive; . = no result given. A portion of the library; count on the stated rates, not on these rows.
SMILES,RecA splice inh,Mtb betalactam,Arbovirus inh,YopH PTP inh,Mtb growth,others
COC(=O)Nc1ccc(S(=O)(=O)N2CCCC(C(=O)N3CC(C)OC(C)C3)C2)cc1 (stereo not drawn),-1.2,-3,6,.,2%,
COc1ccc(C(CNC(=O)C(C)(C)Oc2ccc(Cl)cc2)N2CCCCC2)cc1 (stereo not drawn),2.2,-15,.,.,.,
Cc1c(C=C2C(=O)N(C)C(=S)N(C)C2=O)c2ccccc2n1CC(=O)NCC1CCCO1 (stereo not drawn),-1.7,-1,.,.,.,
O=C(Nc1ccc(-c2csc(Nc3cccc(C(F)(F)F)c3)n2)cc1)c1ccccc1,3.3,4,.,.,1%,
COc1ccc(NC(=O)CCN2C(=O)C3CC=C(Cl)CC3C2=O)cc1 (stereo not drawn),1.5,-12,3,-19,-5%,
Cc1cc(Cl)ccc1C(=O)C1CCCN(C(=O)c2cc(C(C)C)no2)C1 (stereo not drawn),2.2,-5,2,.,-3%,
CCCCNC(=O)C1CC(=O)N(c2ccc(OC)cc2)C1c1ccc(OC)cc1 (stereo not drawn),1.8,-2,8,-1,3%,
Cc1c(C(=O)NCCc2ccccc2)oc2ccc(S(=O)(=O)N3CCOCC3)cc12,5.1,17,-2,-48,-3%,
NC(=O)CCN(Cc1ccccc1)S(=O)(=O)c1ccccc1,-3.0,-4,6,2,-7%,
COc1ccccc1OCc1ccc(C(=O)N2CCN(C(=O)c3ccco3)CC2)cc1,-2.1,2,0,16,.,
Cc1cc2nc(CCN3CCOCC3)n(S(=O)(=O)c3ccc(C(C)(C)C)cc3)c2cc1C,22,0,4,3,-18%,
CCOC(=O)C1(CCc2ccccc2)CCN(C(=O)c2cc(C)nc(C)n2)CC1,3.9,-4,2,.,8%,
Cc1ccc(CNS(=O)(=O)N(C)C)cc1,-0.1,3,6,-28,-4%,
CN(C)c1ccc(/C=C(\Cl)c2nc3ccccc3s2)cc1,.,1,-7,-24,8%,
Oc1ccc(C=NC2CCCCC2)c(O)c1,1.7,5,2,.,-5%,
O=C(COC(=O)c1cccs1)Nc1cccc(S(=O)(=O)NC2=NCCCCC2)c1,1.6,1,5,.,1%,
O=C(c1ccccc1-c1ccccc1)N1CCCCC1,6.1,5,0,.,8%,
Cc1cc(C)n(-c2nnc(C)n2/N=C/c2ccco2)n1,4.0,6,7,4,-10%,
CCn1c(=O)c(C(=O)NCc2ccccc2)c(O)c2ccccc21,-0.9,5,.,.,.,
COc1ccc(OC)c(C2C(C#N)=C(N)Oc3cc(N)ccc32)c1 (stereo not drawn),-3.8,-19,-3,-42,-1%,
COc1ccc(C2C(C(=O)Nc3cc(C)on3)c3ccccc3C(=O)N2C)cc1OC (stereo not drawn),.,-2,-2,-49,-10%,Arbovirus inh repeat=0
CN(N=Nc1ccc([N+](=O)[O-])cc1)c1ccccc1,-1.3,51,-2,-22,7%,
N/C(CN1CCSCC1)=N\OCc1c(F)cccc1Cl,0.4,-5,.,.,.,
CCOc1ccc(N2CC(C(=O)NCCc3ccccc3)CC2=O)cc1 (stereo not drawn),-4.5,-8,.,.,.,
Cc1ccc2c(c1)nnn2C1CCN(CC(=O)N(c2ccccc2)c2ccccc2)CC1,1.8,5,.,.,-1%,

# A draw from above in order of heavy-atom count, rising:
SMILES,RecA splice inh,Mtb betalactam,Arbovirus inh,YopH PTP inh,Mtb growth,others
Cc1cc(C)n(-c2nnc(C)n2/N=C/c2ccco2)n1,4.0,6,7,4,-10%,
CCCCNC(=O)C1CC(=O)N(c2ccc(OC)cc2)C1c1ccc(OC)cc1 (stereo not drawn),1.8,-2,8,-1,3%,
COc1ccc(C(CNC(=O)C(C)(C)Oc2ccc(Cl)cc2)N2CCCCC2)cc1 (stereo not drawn),2.2,-15,.,.,.,
COc1ccc(C2C(C(=O)Nc3cc(C)on3)c3ccccc3C(=O)N2C)cc1OC (stereo not drawn),.,-2,-2,-49,-10%,Arbovirus inh repeat=0
Cc1c(C=C2C(=O)N(C)C(=S)N(C)C2=O)c2ccccc2n1CC(=O)NCC1CCCO1 (stereo not drawn),-1.7,-1,.,.,.,

# (cont.)
SMILES,RecA splice inh,Mtb betalactam,Arbovirus inh,YopH PTP inh,Mtb growth,others
Cc1ccc2cc(C)c(SCC(=O)NCc3ccco3)nc2c1,4.2,5,-10,.,0%,
O=C(OCc1nc2scc(-c3ccccc3)c2c(=O)[nH]1)c1ccco1,9.4,2,.,.,.,
CC(C)(Oc1ccc(Cl)cc1)C(=O)N1CCC(C(N)=O)CC1,-2.4,-10,3,.,-22%,
CCOc1ccc2nc(NCCCO)[nH]c2c1,.,3,-3,-20,-3%,
O=C(NCCCc1ccccc1)C(=O)NCC1OCCN1S(=O)(=O)c1ccc(F)cc1 (stereo not drawn),-1.1,-2,.,.,.,
CN1CCN(C(=O)C2=C[C@@H](c3ccccc3)C[C@@H](OCCCCO)O2)CC1,-1.4,-5,4,.,-8%,
O=C1NC(=Nc2ccccc2)S/C1=C/c1cccs1,0.6,1,-2,.,8%,
CCN(C(=O)Cn1nc(C)c([N+](=O)[O-])c1C)C1CCS(=O)(=O)C1 (stereo not drawn),1.3,-11,.,.,.,
Cc1ccc(Cn2nnnc2CN2CCC(n3nnc4cc(C)ccc43)CC2)cc1,2.0,?,-13,-21,-1%,
Cc1nnc(N(Cc2ccccc2)C(=O)c2cnccn2)s1,-1.4,-2,13,-14,-5%,
NC(=O)[C@H]1CC2(CC(c3cccc(NC(=O)[C@H]4CCC(=O)N4)c3)=NO2)CN1C(=O)CC(c1ccccc1)c1ccccc1 (stereo partly drawn),1.2,-2,.,.,5%,
COc1ccc(S(=O)(=O)N2CCOCC2)cc1NC(=O)Cc1sc(C)nc1-c1ccc(F)cc1,1.5,5,.,.,.,
O=C(COC(=O)c1cc(Br)ccc1O)Nc1ccc2c(c1)OCCO2,0.8,-13,.,.,.,
O=C(/C=C/c1ccc(O)c(O)c1)NC(=O)c1ccccc1O,-6.2,-7,.,.,.,
CCOC(=O)c1c(NC(=O)c2cc(-c3ccc(O)cc3)on2)sc(C(C)=O)c1C,-0.8,6,1,-25,.,
COc1ccc(/C=N/Nc2ncnc3sc4c(c23)CCCC4)cc1O,-4.3,100,-16,-17,14%,
Cc1nc(N2CCN(c3ccccc3)CC2)[nH]c(=O)c1Cc1ccccc1,-2.5,-2,-7,-22,-8%,
COc1ccccc1N1CCN(/N=C/c2ccc(C(=O)O)cc2)CC1,-1.5,0,.,.,.,
CCOC(=O)c1cnc(-n2cc(C)cn2)nc1Nc1ccccc1OC,1.4,82,-3,8,9%,
CCCCC1=CC2=CC(=O)C(C)(OC(=O)CC)C(=O)C2=CN1Cc1ccco1 (stereo not drawn),-3.5,-8,.,.,20%,
Cc1cccc(CC(=O)Nc2cc(C)c3c(=O)oc4ccccc4c3n2)c1,0.3,10,-16,-48,7%,
O=C(O)/C=C/c1cn(Cc2ccccc2Cl)nc1-c1ccccc1,-1.8,1,.,.,8%,
O=C(CNCCc1ccccc1)Nc1ccc(C(=O)N2CCCCC2)cc1,2.8,5,.,.,.,
CCN(CC(=O)Nc1c(F)cccc1F)C(=O)c1cc2ccccc2oc1=O,1.1,-7,.,.,.,
Cn1cccc1Cc1nnc(SCC(=O)NCCc2ccccc2)n1-c1ccc(F)cc1,0.7,4,0,-5,3%,Arbovirus inh repeat=4

# Going on with the list:
SMILES,RecA splice inh,Mtb betalactam,Arbovirus inh,YopH PTP inh,Mtb growth,others
COC(=O)c1sccc1NC(=O)CSc1cc(Cl)ccc1Cl,6.4,68,10,-12,-3%,
O=C(Nc1ccccn1)c1sc2cccc(F)c2c1Cl,-3.6,-8,4,.,-3%,
Cc1c(C(C)O)nnn1-c1nonc1N (stereo not drawn),-0.6,-1,-5,-19,-2%,
O=C(Nc1ccccc1)Nc1cc(OCC(F)(F)F)cc(OCC(F)(F)F)c1,-3.0,.,-34,-3,30%,
O=C(c1cnc2n(c1=O)CCS2)N1CCN(c2ccccc2Cl)CC1,.,.,6,.,2%,
O=C(Nc1c(F)cc(F)cc1Br)c1cc(-c2ccc(O)cc2)on1,13,95,3,-42,74%,Arbovirus inh repeat=-4
CCOc1ccc(S(=O)(=O)N/N=C(\C)Cc2ccc(OC)cc2)cc1,1.3,6,-1,.,2%,
COc1cc(OC)c(OC)cc1CNC1CCCCCC1,-4.6,-3,5,-32,-5%,
C=CCNC(=O)C1CCN(c2cc(C)nc(-c3ccccc3)n2)CC1,-0.4,0,5,.,-4%,
O=C(CCCCCn1c(=S)[nH]c2ccsc2c1=O)NC1CCCCC1,-1.8,2,.,.,.,
CCN(CC(=O)Nc1ccc(OC)cc1)C(=O)Cc1cccs1,6.5,-1,.,.,.,
Cc1cc(-c2ccccc2)oc(=O)c1NC(=O)c1ccccc1,-2.9,-3,-2,.,-7%,
Cc1[nH]nc2c1C(C(C)c1ccccc1)C(C#N)=C(N)O2 (stereo not drawn),-1.2,-1,-1,.,0%,
C=C(C)CC(NCc1ccco1)c1ccc(OC)cc1 (stereo not drawn),2.7,3,7,-22,2%,
CN=c1scc(-c2cccs2)n1/N=C/c1ccccc1O,1.5,13,22,-30,19%,
CCn1c(C)nc2cc(C(=O)NNC(=O)Nc3ccc(Cl)cc3)ccc21,.,-2,0,.,2%,
CC(C)(C)C1=Nn2c(nnc2C2CCCCC2)SC1,-1.1,4,3,-15,5%,
Cc1ccc(C)c(N2CCN(CCCNC(=O)CCn3c(=O)c4cccn4c4cccnc43)CC2)c1,-3.4,13,.,.,.,
CCOc1ccc(C(=O)N2CCc3ccccc32)cc1,-2.1,-11,.,.,.,
Cc1cc(=O)oc(C)c1C(=O)OC(C(=O)c1ccccc1)c1ccccc1 (stereo not drawn),5.6,-4,-4,-26,-3%,
CC(C)OCCCNC(=O)c1cc(Sc2ccc(F)cc2)nc2ccccc12,0.2,1,2,-10,0%,
Cc1cc(C)nc(N2CCC(C(=O)Nc3ccc4c(c3)OCCO4)CC2)n1,0.1,0,6,.,-4%,
O=C(CC1C(=O)NCCN1Cc1cccc(Oc2ccccc2)c1)NCCc1ccccn1 (stereo not drawn),4.2,-7,-1,.,-2%,
Clc1ccc2c(c1)C(N1CCNCC1)Cc1ccccc1S2 (stereo not drawn),.,-3,-38,4,.,
COc1ccc(OC)c(C(=O)N2CCC(C(=O)c3ccc(F)cc3)CC2)c1,-0.8,-8,7,-2,-4%,

# The listing continues:
SMILES,RecA splice inh,Mtb betalactam,Arbovirus inh,YopH PTP inh,Mtb growth,others
O=C(c1sc2ccccc2c1Cl)N(Cc1ccco1)C1CCS(=O)(=O)C1 (stereo not drawn),-0.9,-3,15,-37,7%,
Cc1ccc(C(=O)N2CCN(c3ncnc4c3cnn4-c3ccccc3)CC2)cc1,.,9,.,-16,9%,
NC(N)=NS(=O)(=O)c1ccc(N=C2C(=O)Nc3ccccc32)cc1,3.7,-3,.,.,-6%,
CC(=O)N1CCC(C(=O)NC2CC(C)(C)Cc3c2cnn3-c2ccc(F)cc2)CC1 (stereo not drawn),-0.5,0,.,.,.,
N#CC(C(=O)NCCc1ccccc1)c1nc2ccccc2nc1N1CCOCC1 (stereo not drawn),-6.5,-6,-6,7,-4%,
COc1cccc2cc(C(=O)NCCN3CCOCC3)c(=O)oc12,-2.9,8,.,.,.,
Cc1c(C(=O)N(Cc2ccccc2)C(C)C)cnn1-c1ccccc1,-2.7,-3,.,.,5%,
Cc1ccc(OCc2nnc(NC(=O)c3cccnc3)s2)cc1,-0.4,36,.,.,1%,
CCOc1ccc(OCCC(=O)OCC(=O)N2CCN(c3ccc(OC)cc3)CC2)cc1,-1.0,24,.,.,.,
COCCCn1c(SCC(=O)Nc2ccccc2F)nnc1-c1ccoc1C,2.5,2,.,.,.,
CC(=N\NC(=O)c1ccc([N+](=O)[O-])cc1)/C(=N/O)C(=O)Nc1ccccc1,-1.5,20,.,.,.,
O=P(Oc1ccccc1)(Oc1ccccc1)N1CCN(c2ccc(F)cc2)CC1,.,-6,.,.,4%,
COc1cccc(NC(=O)c2cnc(SC)nc2)c1,-0.9,100,.,.,.,
Cc1ccc(CNC(=O)COc2ccc(S(=O)(=O)N3CCCC3)cc2)cc1,-0.7,1,.,.,.,
COC(=O)/C=C1/N/C(=N\c2nc(C)cc(C)n2)N(c2ccc(C)c(C)c2)C1=O,-2.7,65,-9,-8,-5%,
Cc1ccc2oc(=O)c3cnn(CC(=O)N4CCc5ccccc5C4)c3c2c1,-0.3,4,-7,-51,-5%,Arbovirus inh repeat=-7
NNc1nc2c(F)cccc2s1,-4.1,21,3,-14,8%,
O=C(Nc1ccccc1F)C1CCCC1,-1.5,-8,.,.,.,
COC(=O)c1ccccc1S(=O)(=O)N1CCn2cccc2C1C (stereo not drawn),-2.3,-3,14,.,-1%,
COCCn1nnnc1SCC(=O)NCc1ccc2c(c1)OCO2,-0.5,3,4,.,5%,
